High-throughput results: PubChem, National Center for Advancing Translational Sciences (NCATS)
StopGo reporter: High Throughput Screening for Foot and Mouth Disease Virus Antivirals; actives 1.2% (n = 410,000); Potency, µM (series often up to 57.9 µM), for the others: at the top dose signal change, negative = less light; human cells with a luciferase reporter of 2A StopGo recoding; control for the full effect not named in the record; active = well fitted falling curve with a large enough effect; inconclusive = small, poorly fitted or top-dose-only effect; inactive = no such curve, though single readings can be large or run the other way; tested in HEK293T cells; also: % is scaled to controls: 0 for no effect and ±100 for the full control effect; nearly all actives have a fitted effect of over 45% in size; luciferase light after 4 h
NS1 inh: qHTS Assay for Inhibitors of Influenza NS1 Protein Function; S. cerevisiae slowed by influenza A NS1, growth recovery by OD600; Potency, µM (series often up to 46.1 µM), for inactives: top-dose activity, positive = more growth; actives 0.4% (n = 270,000); active means well fitted rising curve with a large enough effect; inconclusive means small, poorly fitted or top-dose-only effect; inactive means no such curve, though single readings can be large or run the other way; also: nearly all actives have a fitted effect of over 50% in size
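OD600 was taken as the measure of yeast growth restored by compound in an NS1-expressing S. cerevisiae strain. Cells had been washed out of glucose medium and diluted 1:100 into galactose -URA medium, pH 6.0.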
RE007 growth inh: qHTS Assay for Inhibitors of the HIV-1 protein Vpr. Potency, µM (titrated, usually from 92.2 µM), inactives show at the highest dose activity change, negative = less growth. actives 0.21% (n = 360,000). S. pombe RE007 Vpr strain, BacTiter-Glo ATP luminescence, 24 h; control for the full effect not named in the record; active = well fitted falling curve with a large enough effect; inconclusive = small, poorly fitted or top-dose-only effect; inactive = no such curve, though single readings can be large or run the other way;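 also: % is scaled to controls: 0 for no effect and ±100 for the full control effect; nearly all actives have a fitted effect of over 50% in size; the assay follows cell death caused by Vpr and the record does not say whether a fall means rescue or toxicity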
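Fission yeast RE007 carrying one integrated HIV-1 vpr copy, seeded at OD 0.01 in PMG+AL medium with 23 nL pinned compound. Grown 24 h at 30 degrees; viability read by BacTiter-Glo luminescence after 5 min.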
SARS PLP yeast: qHTS of Yeast-based Assay for SARS-CoV PLP; S. cerevisiae expressing SARS-CoV PLpro, growth rescue; control for the full effect not named in the record; Potency, µM (highest dose often 32.9 µM), without a hit: at the top dose activity, positive = growth rescue; actives 0.19% (n = 330,000); AID 485353, 2010; active means well fitted rising curve with a large enough effect; inconclusive means small, poorly fitted or top-dose-only effect; inactive means no such curve, though single readings can be large or run the other way; also: 0% is about no effect; nearly all actives have a fitted effect of over 55% in size; growth read by luminescence after 48 h
Cruzain inh Det: qHTS Assay for Promiscuous and Specific Inhibitors of Cruzain (with detergent); Potency, µM, for inactives: max response, negative = inhibition, most hits filed as inhibitors; actives 0.43% (n = 200,000); purified cruzain, Z-FR-AMC fluorescence, 0.01% Triton; Cruzipain (Trypanosoma cruzi), P25779;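 also: plate controls were neutral wells for no effect and buffer without enzyme for full effect; nearly all actives have a fitted effect of over 40% in size; top concentration of the series not given in the record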
Target sequence (P25779 123-467 limits assumed): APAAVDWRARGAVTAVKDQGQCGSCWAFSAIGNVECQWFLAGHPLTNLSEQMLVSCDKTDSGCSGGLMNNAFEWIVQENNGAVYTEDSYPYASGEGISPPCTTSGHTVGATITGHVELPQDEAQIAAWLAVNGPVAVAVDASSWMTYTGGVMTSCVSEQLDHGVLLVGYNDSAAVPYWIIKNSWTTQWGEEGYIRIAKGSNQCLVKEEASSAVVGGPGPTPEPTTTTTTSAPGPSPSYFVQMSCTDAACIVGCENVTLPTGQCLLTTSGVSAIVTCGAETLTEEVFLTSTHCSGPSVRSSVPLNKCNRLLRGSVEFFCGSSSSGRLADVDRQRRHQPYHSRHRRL
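Cysteine protease activity tested under reducing, mildly acidic conditions (100 mM sodium acetate pH 5.5, 5 mM DTT) plus 0.01% Triton X-100. Cruzain 1.5 nM; substrate Z-FR-AMC 2 uM; 15 min compound preincubation at room temperature.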
MARV entry inh: qHTS for inhibitors of binding or entry into cells for Marburg Virus; Marburg virus pseudotyped entry inhibition, cell reporter; control for the full effect not named in the record; about a third of the inactives were read at about 46 µM; Potency, µM (series often up to 37.8 µM), for the others: at the top dose activity change, negative = inhibition, most hits filed as inhibitors; actives 1.8% (n = 300,000); AID 540276, 2011; active = well fitted inhibition curve with a large enough effect; inconclusive = small, poorly fitted or top-dose-only effect, or effect the other way; inactive = flat fitted curve, though single readings scatter; tested in HEK293 cells; about a fifth of its hits are not listed in these tables; also: % is scaled to controls: 0 for no effect and ±100 for the full control effect; luciferase read-out
LASV entry inh: qHTS for Inhibitors of binding or entry into cells for Lassa Virus | Lassa virus pseudotype entry inhibition, cell reporter; control for the full effect not named in the record | Potency, µM (top dose mostly 37.9 µM), without a hit: top-dose activity change, negative = inhibition, actives largely listed as inhibitors | actives 1.2% (n = 300,000) | AID 540256, 2011; active means well fitted inhibition curve with a large enough effect; inconclusive means small, poorly fitted or top-dose-only effect, or effect the other way; inactive means flat fitted curve, though single readings scatter; tested in HEK293 cells; also: % is scaled to controls: 0 for no effect and ±100 for the full control effect; nearly all actives have a fitted effect of over 50% in size; luciferase read-out
Cruzain noTriton: qHTS Assay for Promiscuous and Specific Inhibitors of Cruzain (without detergent). Cruzipain (Trypanosoma cruzi), P25779. purified cruzain, Z-FR-AMC fluorescence, no detergent. Potency, µM, for the others: max response, negative = inhibition, actives largely listed as inhibitors. actives 2.3% (n = 200,000). AID 1476, 2009;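 also: plate controls were enzyme without inhibitor for no effect and buffer without enzyme for full effect; nearly all actives have a fitted effect of over 40% in size; top concentration of the series not given in the record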
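Purified cruzain at 1.5 nM, pre-incubated 15 min with compound at room temperature in 100 mM sodium acetate pH 5.5, 5 mM DTT, 0.00005% Triton X-100. Reaction started with 2 uM Z-FR-AMC; AMC fluorescence increase over 60 s gives rate.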
* marks the source's active call; other numbers are inactive results; ? = inconclusive; / = no result given; [ ] = remark or other dose. Unless noted, calls follow the shape of the dose curve; as a rule, active = well fitted curve in the direction sought with a large enough effect; inconclusive = small, poorly fitted or top-dose-only effect, or another doubt; inactive = no such curve, though single readings can be large; an effect the other way counts as inactive or inconclusive. Potency is read from the fitted curve at half-maximal effect. Not a hit list. About 4.7% of those tested had a hit in this group.

SMILES	StopGo reporter	NS1 inh	RE007 growth inh	SARS PLP yeast	Cruzain inh Det	MARV entry inh	LASV entry inh	Cruzain noTriton
COC(=O)c1c(NC(=O)CSc2nnnn2-c2ccccc2)sc2c1CCC(C)C2 (stereo not given)	/	17%	-8%	3%	-1.2%	-29%	-6%	20µM*
O=c1c2cc(NC(=S)NC3CCCC3)ccc2nc2n1CCCCC2	10%	/	1%	-8%	/	?	?	/
O=c1[nH]c(O)c(C=Nc2ccccc2Sc2ccccc2)c(=O)[nH]1	-6%	1%	-1%	2%	/	9%[46.1 µM]	?	/
COCCCNC(=O)c1nn(C)c2c1CS(=O)(=O)c1ccccc1-2	-1%	/	/	/	6.3%	/	25%[46.1 µM]	7%
CSc1nnc2c(n1)OC(c1cn(C)c3ccccc13)N(C(C)=O)c1ccccc1-2 (stereo not given)	-15%	2%	0%	2%	-0.8%	10%[46.1 µM]	6%	4%
Cc1ccn(CC(=O)O)c(=O)c1	-14%	-2%	4%	2%	4.7%	12%	20%	7%
Cc1cc(OCCCC(=O)NCCN2C(=O)S/C(=C\c3cccnc3)C2=O)ccc1Cl	?	-4%	-8%	-6%	-19%	?	-16%[46.1 µM]	?
CCCC(=O)Nc1ccc(Cl)c(NC(=S)NC(=O)c2cc3ccccc3o2)c1	-14%	?	-10%	15%	-2.5%	1%	?	5µM*
COc1cc(CCC(=O)NNC(=O)c2ccc(C)cc2)cc(OC)c1OC	-5%	/	-7%	2%	/	?	17%[46.1 µM]	/
Cn1c(-c2ccc(S(=O)(=O)N3CCCC3)cc2)csc1=Nc1ccc(Cl)c(Cl)c1	0%	/	/	/	-2.8%	/	?	-1%
Cc1ccc(-n2c(-c3cnccn3)n[nH]c2=S)cc1	-13%	11%	4%	18%	/	/	/	/
CCCCCNC(=O)C1CCC(Cn2c(=S)[nH]c3ccccc3c2=O)CC1 (stereo not given)	27%	/	6%	4%	/	-9%[46.1 µM]	-1%[46.1 µM]	/
COc1ccc(-n2nc3c(N4CCC(C(=O)NCc5cccc(F)c5)CC4)nnc(C)c3c2C)cc1	-30%	/	/	/	-22%	/	-6%[46.1 µM]	?
CN(N)c1nc(-c2ccccc2)cc(-c2ccccc2)n1	-24%	18%	-15%	2%	/	9%	0%	/
COC(=O)c1c(C)[nH]c(C(=O)/C=C/c2ccc(Cl)cc2)c1C	35%[activator]	2%	2%	22%	-4.4%	?	-12%	-25%
Cc1ccc(-n2c(SCc3ccc(C(=O)O)cc3)nnc2-c2ccncc2)cc1	-9%	2%	2%	0%	/	-7%[46.1 µM]	0%	/
CCCOc1ccc2[nH]cc(C(=O)O)c(=O)c2c1	8%	-9%	-3%	-4%	0.9%	28%	12%	0%
N#CNc1nc(O)cc(=O)[nH]1	-1%	6%	2%	2%	/	13%[46.1 µM]	-9%[46.1 µM]	/
CCOC(=O)C1CCN(C(=S)Nc2ccc(Cl)cc2C)CC1	4%	/	-24%	-1%	/	?	-6%[46.1 µM]	/
Cc1nn2c(CN(C(=O)c3ccco3)c3ccccc3)nnc2c2ccccc12	-24%	-7%	2%	/	/	-12%	15%	/
O=C(Nc1cccc(S(=O)(=O)NCc2ccco2)c1)c1cc(-c2ccccc2)nc2ccccc12	-8%	8%	-4%	-7%	-8.5%	?	?	?
CCc1ccc(C2=C/C(=C/c3cccnc3)C(=O)O2)cc1	-11%	-24%	/	3%	-10%	-10%	4%	3%
Cc1ccc(Cn2c(C(C)NC(=O)c3ccccc3)nc3ccccc32)cc1 (stereo not given)	-16%	/	/	/	-1.0%	?	-5%[46.1 µM]	1%
Cc1cc(C)c2c(=O)[nH]c(SCC(=O)Nc3ccc(N(C)C)cc3)nc2n1	/	2%	11%	10%	-5.4%	18%	20%	-10%
CC1=NN(c2ccc(S(=O)(=O)O)cc2Cl)C(=O)C1	5%	6%	-11%	1%	/	3%[46.1 µM]	12%	/
Cc1ccnc(NC(=O)c2ccc(S(=O)(=O)NCc3ccco3)cc2)c1	56%[activator]	/	20%	-3%	/	?	?	/
CC(C)Oc1ccc(CSC(=N)N)cc1	-7%	-7%	10%	15%	6.4%	-20%	6%	4%
Cc1nnc(NC(=O)c2ccc(Br)cc2)s1	39%[activator]	-9%	-13%	16%	5.9%	?	3%	-20%
O=C(Cn1ncc(Cl)c(Cl)c1=O)N1CCc2ccccc21	?	6%	0%	-1%	/	?	?	/
COC(=O)c1ccc(C2c3[nH]c4ccccc4c3C[C@H]3C(=O)N(C4CCN(Cc5ccccc5)CC4)CC(=O)N23)cc1 (stereo not given in full)	0%	6%	16%	0%	/	/	/	/
CC(C)(C)c1ccccc1NC(=S)NC1CCCC1	7%	-59%	22%	2%	/	/	/	/
C[C@@H](CN=[N+]=[N-])CN1CC[C@H](NC(=O)OCc2ccccc2)CCC1=O	-19%	6%	-7%	-1%	/	/	/	/
COc1ccc(CNC(=O)c2cccc(NC(=O)CC3SC(N4CCCCC4)=NC3=O)c2)cc1 (stereo not given)	-21%	/	5%	3%	/	-13%	?	/
Cc1ccc2c(=O)cc(C(=O)Nc3ccc(S(=O)(=O)N(C)Cc4ccccc4)cc3)oc2c1C	-11%	/	/	/	-1.2%	-14%[46.1 µM]	25%[46.1 µM]	2%
CCOC(=O)c1ccc2oc(=O)n(Cc3ccccc3)c2c1	-24%	/	/	/	-1.8%	/	0%[46.1 µM]	-10%
CC(=O)c1ccc(N(CC(=O)NC2CCCC2)C(=O)CCC(=O)Nc2cc(C)on2)cc1	-4%	-1%	3%	-1%	/	0%[46.1 µM]	6%[46.1 µM]	/
CCOc1ccc(CC(=O)NC2CCN(Cc3ccccc3)CC2)cc1	-20%	-2%	0%	-1%	/	/	/	/
CCOC(=O)c1ccccc1N/C=C/C(=O)c1cccs1	14%	-21%	-9%	-23%	-9.8%	?	-3%	4%
CCOc1ccccc1CN1CCN(CC2=Cc3cc(OC)ccc3OC2)CC1CCO (stereo not given)	?	4%	3%	0%	/	/	/	/
Cc1cccc(N2CCN(Cc3nc(CC4CC4)no3)CC2)n1	-4%	1%	-8%	0%	/	1%[46.1 µM]	4%[46.1 µM]	/
O=C(CSc1nnc2ccc3ccccc3n12)c1ccc(F)cc1	46%[activator]	/	/	0%	-1.9%	?	13%[46.1 µM]	-6%
CCc1ccccc1NC(=O)CCc1nc(-c2cccs2)no1	20%	/	-1%	-3%	/	-1%	7%	/
Cc1ccnn1CC(=O)N/N=C/c1ccco1	-20%	3%	1%[3.69 µM]	1%	2.4%	12%	29%	2%
O=C(COC(=O)c1ccc2ccccc2n1)c1ccc(F)cc1	6%	4%	3%	0%	/	29%[46.1 µM]	?	/
CCN(CC)C(=O)CN(c1cc(Cl)ccc1OC)S(C)(=O)=O	/	3%	9%	1%	-0.6%	10%	-6%	15%
N/C(=N\OC(=O)c1ccc(Cl)cc1Cl)c1ccccn1	-54%	-55%	-24%	-4%	/	3.7µM*	5.2µM*	/
CC(=O)NCCN1C(=O)S/C(=C\c2cccs2)C1=O	0%	2%	-1%	0%	/	28%[46.1 µM]	20%	/
Cc1nn(Cc2ccccc2)c(C)c1C(=O)OCC(=O)NCc1ccco1	-8%	-14%	16%	4%	1.3%	-12%	-28%	-1%
CN(C)c1ccc(C(=O)Nc2nnc(C3=COCCO3)o2)cc1	43%[activator]	/	-15%	1%	/	33%[46.1 µM]	21%	/
OCCC1CN(Cc2cc3ccccc3o2)CCN1Cc1ccc(F)cc1 (stereo not given)	-25%	11%	-10%	?	/	/	/	/
N#C/C(=C\c1ccc(-c2ccc(S(=O)(=O)N3CCOCC3)cc2)o1)C(=O)NC1CC1	-24%	16%	2%	5%	-10%	?	?	?
C=CCn1c(O)c(C(C)=NC2CC2)c(=O)[nH]c1=O	0%	-10%	3%	1%	-0.4%	-1%	?	2%
Cn1ccnc1SCC(=O)Nc1ccc(Br)cc1C(F)(F)F	15%	-5%	-15%	3%	/	?	-2%	/
COc1ccc2nc(/N=C/c3cccc(OC)c3O)sc2c1	22%	-4%	-14%	-5%	/	24%[46.1 µM]	-9%	/
COc1ccccc1NC(=O)NCc1nc(-c2ccc(C(F)(F)F)cc2)no1	-23%	-3%	-7%	0%	/	-24%	-25%	/
C=CCn1c(=O)c2ccc(C(=O)NCc3ccccc3)cc2n(Cc2ccc(Cl)cc2)c1=O	-14%	27%	-1%	6%	-3.6%	?	?	-28%
COC(=O)c1cc2ccsc2n1Cc1nc(-c2ccc(OC)cc2)oc1C	56%[activator]	-30%	1%	-10%	-1.4%	?	?	-10%
O=C(Cn1cnc2c(oc3ccccc32)c1=O)Nc1ccc(OC(F)(F)F)cc1	3%	/	/	/	-2.1%	/	18%[46.1 µM]	12%
CSc1ncc(C(=O)Nc2cccc(Cl)c2)c(C)n1	-2%	-31%	-11%	2%	/	/	/	/
CNc1ccc(Br)cc(C(=O)/C=C/c2ccc(OC)cc2)c1=O	16µM*	?	-7%	20%	-19%	-17%	-15%	-7%

(cont.)
SMILES	StopGo reporter	NS1 inh	RE007 growth inh	SARS PLP yeast	Cruzain inh Det	MARV entry inh	LASV entry inh	Cruzain noTriton
Cc1ccc(C(=O)c2cn(CC(=O)NCc3ccccc3Cl)c3nc(C)ccc3c2=O)cc1	-14%	/	/	/	-1.0%	/	12%[46.1 µM]	-7%
COc1ccc(C(=O)Oc2cc(/C=N/NC(N)=S)ccc2OC)cc1	-25%	8.9µM*	-5%	?	-8.0%	-28%	3%	?
Cc1nc2cc(NCc3ccc(Cl)cc3)ccc2n1C	-28%	-4%	-25%	-11%	/	?	?	/
O=C1CCC/C(=N\NC(=O)c2ccc(NS(=O)(=O)c3ccc(Br)cc3)cc2)C1	-11%	29%	32%	7%	-3.4%	-4%	-2%	5%
Cc1ccc(C(=O)NC(=S)NCCCN2CCOCC2)cc1	30%[activator]	2%	-13%	1%	/	?	0%	/
CC1(c2ccc3c(c2)OCCO3)NC(=O)N(CC(=O)Nc2ccccc2F)C1=O (stereo not given)	-14%	/	7%	3%	/	?	?	/
